CHT allo act: CHT positive allosteric modulators, primary screen, cell-based, membrane potential dye, choline EC20 | AID 488977, 2010 | 310,000 compounds, 0.49% hits | B-score at 10 µM | High affinity choline transporter 1 (Homo sapiens), Q9GZV3 | CHT-expressing cells; active compounds read high; LV-AA mutant CHT in HEK293 cells;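 active = initial fluorescence not abnormally high and integrated response B-score, plate-corrected, over 3 SD above library mean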
Target sequence (Q9GZV3 whole entry, looked up): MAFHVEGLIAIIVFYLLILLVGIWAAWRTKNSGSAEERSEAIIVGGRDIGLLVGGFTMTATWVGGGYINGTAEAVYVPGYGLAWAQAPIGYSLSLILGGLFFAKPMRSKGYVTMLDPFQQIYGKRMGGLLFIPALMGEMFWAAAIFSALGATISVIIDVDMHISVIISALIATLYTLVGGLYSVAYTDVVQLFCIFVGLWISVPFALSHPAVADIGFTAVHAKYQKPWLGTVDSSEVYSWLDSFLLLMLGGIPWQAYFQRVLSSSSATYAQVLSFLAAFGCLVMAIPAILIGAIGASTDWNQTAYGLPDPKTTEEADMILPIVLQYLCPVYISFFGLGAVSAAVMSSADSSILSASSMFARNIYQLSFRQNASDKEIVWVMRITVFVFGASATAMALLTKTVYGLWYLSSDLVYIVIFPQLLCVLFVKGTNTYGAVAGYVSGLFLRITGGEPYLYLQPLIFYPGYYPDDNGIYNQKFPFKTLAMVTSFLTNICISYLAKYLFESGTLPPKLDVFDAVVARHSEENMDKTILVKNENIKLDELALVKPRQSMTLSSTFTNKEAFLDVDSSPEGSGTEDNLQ
Calls only; i = inactive.

smiles,CHT allo act
CCC(C)n1cnc2c(=O)oc3ccccc3c21 (stereo unspecified),i
COC(=O)c1cccc(C23CC4(C2)[C@H](CN(C)[C@@H]4c2ccccc2)C3c2ccccc2)c1 (stereo partly specified),i
CCOC(=O)C[C@H]1c2ccccc2S(=O)(=O)N1c1ccccc1,i
NC(=O)c1nsc(C(=O)N(CC(=O)NC2CCCCC2)c2cccc(F)c2)c1N,i
COCCn1c(=S)[nH]c2cc(C(=O)N(CCO)Cc3ccccc3)ccc2c1=O,i
Cc1nn(-c2ccccc2)c(C)c1/C=C/C(=O)OCC(=O)Nc1ncc(Cl)cc1Cl,i
COc1ccc(S(=O)(=O)N2CCCCC2)cc1NC(=O)Cc1c[nH]c2ccccc12,i
COc1ccc(S(=O)(=O)Nc2c(C)cc(C)cc2C)c2cccnc12,i
CCOc1ccc(NC(=O)CSc2nnc(Cn3cnc([N+](=O)[O-])n3)n2CC)cc1,i
COc1ccc(SCCc2nnc(-c3ccccc3)o2)cc1,i
O=C(Nc1c(F)cc(F)cc1Br)c1cc(-c2ccccc2)on1,i
COc1ccc(N2CCN(C(=O)C3CCN(S(=O)(=O)c4ccc5c(c4)oc(=O)n5C)CC3)CC2)cc1,i
Nc1c(Cl)cnc(C(Cl)(Cl)Cl)c1Cl,i
O=C1N/C(=C/c2ccc(N3CCOCC3)o2)C(=O)N1c1cccc(Cl)c1,i
Cc1cccc(C2CC(c3ccc(Br)cc3)Nc3nc(N)nn32)c1 (stereo unspecified),i
O=C(Nc1cccc(F)c1)/C(=C\c1cccnc1)NC(=O)c1cccs1,i
CCn1nc(C)c(CN2CCCC(CNS(=O)(=O)c3ccc(OC)cc3)C2)c1C (stereo unspecified),i
CC1(C)CC(NC(=O)C2CCN(S(=O)(=O)c3ccccc3C(F)(F)F)CC2)CC(C)(C)N1,i
CC(=O)N1c2ccc(C)cc2C(c2ccccc2)CC1C (stereo unspecified),i
O=C(N/N=C/c1sc(=O)n(-c2ccccc2)c1Cl)c1ccncc1,i
COc1ccc(OC)c2[nH]c(=O)c(CCNC(=O)C(=O)c3c[nH]c4ccccc34)cc12,i
c1ccc(Oc2cnc3ccccc3n2)cc1,i
O=C1c2ccccc2C(=O)N1CCCP(=O)(O)CCc1ccccc1,i
CCOC(=O)N1CCc2c(sc3c2c(=O)n(Cc2ccccc2)c(=O)n3Cc2ccccc2F)C1,i
COc1cccc(/C=C(/C#N)c2ccc(F)cc2)c1OCc1cccc(C(=O)O)c1,i
O=C(CCn1c(=O)c2sccc2n(CC(=O)OCc2ccccc2)c1=O)NCc1ccco1,i
O=C(O)C1CCN(C(=O)c2scc3c2OCCO3)CC1,i
c1nc(N2CCC3(CC2)OCCO3)c2c3c(sc2n1)CCCC3,i
COc1ccc(-c2cc(C(=O)NC3CC3)c3ccccc3n2)cc1,i
COc1ccc(-c2noc3c2-c2nc(-c4ccc(Cl)cc4)sc2CC3)cc1,i
c1ccc(-c2noc(COc3ccc4c(c3)OCO4)n2)cc1,i
CCCN1C2=C(C(=O)CCC2)C(c2ccc(O)c(Br)c2)C2=C1CCCC2=O,i
CCCCCCSc1nsc(NC(=O)CCC)n1,i
C/C(=N\NC(=O)c1nonc1N)c1cccs1,i
OCc1cc(CO)c(O)c(CCc2ccccc2)n1,i
O=[N+]([O-])CC(c1ccccc1)P(=O)(c1ccccc1)c1ccccc1 (stereo unspecified),i
O=C(Nc1ccccc1)N1CCNCC1,i
O=C(CCSCCC(=O)N1CCCC1)N1CCCC1,i
O=S(=O)(NC1CCN(Cc2ccccc2)CC1)c1ccc(Cl)cc1,i
CC(C)N(Cc1cnn(C)c1)Cc1nc(Cc2ccccc2Cl)no1,i
COc1ccccc1C(c1nnnn1CS(=O)(=O)c1ccc(C)cc1)N1CCSCC1 (stereo unspecified),i
Cc1ccccc1-n1c(C)c(C#N)c(=O)c(-[n+]2ccccc2)c1[S-],i
COc1cc(/C=C/C(=O)O)cc(S(=O)(=O)Nc2ccccc2C(=O)NCCc2ccccc2)c1OC,i
COC(=O)CN1C(=O)CC(C)(C)Sc2ccccc21,i
O=C(CN1C(=O)C(=O)c2ccccc21)NCCc1ccccc1,i
CC(C)(C)OC(=O)[C@H](Cc1ccccc1)NC(=O)c1nc[nH]c1C(=O)NC1CCNCC1,i
COc1ccc(NC(=S)NCC(O)c2ccccc2)c(OC)c1 (stereo unspecified),i
CC(=O)Nc1ccc(S(=O)(=O)n2nc(C)cc2C)cc1,i
CCOc1cc(NS(=O)(=O)c2ccc(NC(C)=O)cc2)c(OCC)cc1NC(=O)C(C)C,i
Cc1ccc(S(=O)(=O)c2c(C)nn(C(C)(C)C)c2OC(=O)c2cccs2)cc1,i
CN(C)S(=O)(=O)c1ccc(NC(=O)N2CCOCC2)cc1,i
COc1cc(C2=NOC(C(=O)NCc3ccco3)C2)cc(OC)c1OC (stereo unspecified),i
Cc1ccc2nc(N3CCN(C(=O)c4cccs4)CC3)c(C#N)cc2c1,i
COCCN(C/C=C/c1ccccc1)C/C=C/c1ccccc1,i
Cc1cccc(C)c1N1CCN(S(=O)(=O)N(C)C)CC1,i
COc1ccc(-c2csc3nc(-c4ccccc4)oc(=O)c23)cc1OC,i
Cc1cc(=O)n2nc(N3CCCC(C(=O)NCc4ccc(F)cc4)C3)sc2n1 (stereo unspecified),i
O=C(CNS(=O)(=O)c1ccc(F)cc1)N1CCN(c2ccccc2)CC1,i
CCOC(=O)C1(Cc2ccccc2)CCCN(C(=O)c2ccc(-n3ccnc3)cc2)C1 (stereo unspecified),i
CCOc1ccc(C(=O)O/N=C(\N)c2ccccn2)cc1OCC,i

Quoted from above, 6 compounds:
smiles,CHT allo act
CCOc1cc(NS(=O)(=O)c2ccc(NC(C)=O)cc2)c(OCC)cc1NC(=O)C(C)C,i
Cc1ccc(S(=O)(=O)c2c(C)nn(C(C)(C)C)c2OC(=O)c2cccs2)cc1,i
CN(C)S(=O)(=O)c1ccc(NC(=O)N2CCOCC2)cc1,i
COc1cc(C2=NOC(C(=O)NCc3ccco3)C2)cc(OC)c1OC (stereo unspecified),i
Cc1ccc2nc(N3CCN(C(=O)c4cccs4)CC3)c(C#N)cc2c1,i
COCCN(C/C=C/c1ccccc1)C/C=C/c1ccccc1,i

Of the compounds above, these contain a tert-butyl group:
smiles,CHT allo act
CC(C)(C)OC(=O)[C@H](Cc1ccccc1)NC(=O)c1nc[nH]c1C(=O)NC1CCNCC1,i
Cc1ccc(S(=O)(=O)c2c(C)nn(C(C)(C)C)c2OC(=O)c2cccs2)cc1,i

Later entries
smiles,CHT allo act
CCN(c1ccccc1)S(=O)(=O)c1ccc(C(C(=O)OC)C(=O)OC)c([N+](=O)[O-])c1,i
CCn1cnc2c([N+](=O)[O-])c(NS(=O)(=O)c3ccc(C)cc3)ccc21,i
CNC(=O)CCCCC(=O)N/N=C/c1ccc(Cl)cc1Cl,i
O=C1OCCC1Sc1nnc(-c2ccc(Cl)cc2)n1Cc1ccccc1 (stereo unspecified),i
COc1ccc(C(=O)NCCN2CCCC2)cc1[N+](=O)[O-],i
O=C(CN1C(=O)S/C(=C\c2ccc(Cl)cc2)C1=O)NNC(=O)c1ccccc1O,i
COc1cc(/C=N/NC(=O)c2nonc2N)cc(OC)c1OC,i
O=C(O)c1ccc(S(=O)(=O)c2ccccc2C(=O)O)c([N+](=O)[O-])c1,i
NCCCC[C@@H]1NC(=O)[C@H](CCC(=O)O)NC(=O)c2cc([N+](=O)[O-])cc(I)c2NCC[C@@H](C(N)=O)NC1=O,i
COc1cc(C(C)=O)ccc1Oc1ncnc2c1cnn2-c1cccc(Cl)c1,i
O=C(CCNS(=O)(=O)c1ccc(Br)s1)N1CCCCC1,i
COc1ccccc1N1CCN(C2CCCCC2NS(=O)(=O)c2ccccc2)CC1 (stereo unspecified),i
COc1ccc(/C=C(/NC(=O)c2ccc(C)cc2)C(=O)NCC2CCCO2)cc1 (stereo unspecified),i
COC(=O)c1ccccc1NC(=O)COC(=O)c1cccnc1,i
COC(=O)c1cc(Br)ccc1OC(=O)c1cccnc1,i
c1ccc(-c2nn3c(C4CCCCC4)nnc3s2)nc1,i
Clc1ccccc1Cn1nnc2c(NCC3CC3)ncnc21,i
COc1ccc(N2C(=O)CC(N3CCC(O)(c4ccc(Br)cc4)CC3)C2=O)cc1 (stereo unspecified),i
Cc1nc(SCC(=O)Nc2ccnc3ccccc23)n[nH]1,i
COCCn1nnnc1C(c1cc(OC)ccc1OC)N1CCc2ccccc2C1 (stereo unspecified),i
CCCn1cc(CN2CCC(n3nccc3NC(=O)c3ccc4c(c3)OCO4)CC2)c(C)n1,i
CCOC(=O)CNC(c1ccccc1)c1cc(Br)ccc1NC(=O)CCN1CCOCC1 (stereo unspecified),i
CCOc1ccc(NC(=O)c2sc3nc4n(c(=O)c3c2C)CCC4)cc1,i
COC(=O)Cc1ccc(NC(=O)c2ccccc2Cl)cc1,i
CCO[C@H]1OC(C(=O)O)=C[C@@H](c2ccccc2)[C@@H]1CCCO,i
COC(=O)c1ccccc1C(=O)c1cccc2ccccc12,i
O=C(/C=C/c1cccs1)Nc1sc2c(c1C(=O)O)CCCC2,i
O=C1CC(NS(=O)(=O)c2ccccc2F)CN1c1ccc2c(c1)OCCO2 (stereo unspecified),i
Cc1cccc(C(=O)Nc2ccc(O)c3c(=O)cc(-c4ccccc4Cl)oc23)c1,i
CC1=CSC2=NC(=O)/C(=C\c3cccn3-c3ccccc3)C(=N)N12,i
COc1ccc(COC(=O)CCc2c[nH]c3ccccc23)cc1F,i
CCOc1ccccc1OCC(=O)Nc1nnc(COC)s1,i
COc1cccc(CNC(=O)CCCc2cn(C)c3ccccc23)c1,i
O=C(OCC(=O)N1CCOCC1)c1ccccc1SCC(=O)N1CCCC1,i
Cc1cc(-n2c(SCC(=O)Nc3ccc(F)c(F)c3)nc3n[nH]c(C)c3c2=N)ccc1Cl,i
NC(=O)Cn1ccc(O)c(Cc2ccc(Cl)cc2Cl)c1=O,i
NNC(=O)c1ccc(N2CCc3ccccc32)c([N+](=O)[O-])c1,i
O=C(Nc1ccc(F)cc1F)N1CCCC(c2nc(-c3ccc(F)cc3)no2)C1 (stereo unspecified),i
O=C(NC(Cc1ccccc1)C(=O)O)/C(=C/c1ccccc1)NC(=O)c1ccco1 (stereo unspecified),i
COc1ccc(Oc2nc(C)cc(C)c2C#N)cc1,i
COc1ccc(OC(C)C(=O)N2CC(C)OC(C)C2)cc1 (stereo unspecified),i
CCn1cc(C(=O)NCc2ccc(Cl)cc2)c(=O)c2cc(S(=O)(=O)N3CCOCC3)ccc21,i
O=C(COC(=O)CCC1CCCCC1)Nc1ccc(OC(F)F)cc1,i
COc1ccc(C(=O)/C(C)=N/O)cc1OC,i
CC(C)c1ccccc1NC(=S)NCc1ccccc1F,i
CCN(Cc1nc(-c2cccc(Cl)c2)no1)CC1CCCO1 (stereo unspecified),i
Cn1c(C(=O)NCc2cccnc2)cc2sccc21,i
COCCOc1cc(NC(=O)c2cccc(OC)c2)c(Cl)cc1Cl,i
Cc1noc(C)c1COC(=O)Cn1c(C)nc2ccccc21,i
Cc1ccc(S(=O)(=O)NCC(c2ccco2)N2CCc3ccccc32)cc1 (stereo unspecified),i
COc1ccc(Cl)cc1NC(=O)CN(C)C(=O)c1cc2ccccc2cc1O,i
COc1ccc(NC(=O)/C=C/c2cccc(F)c2)cn1,i
Cc1ccc(C2NC(=O)c3ccccc3N2)s1 (stereo unspecified),i
COc1ccc(NC(C)c2cc(Cl)ccc2O)cc1 (stereo unspecified),i
CCCC1S/C(=N/N=C/c2ccco2)NC1=O (stereo unspecified),i
CCCCNC(=O)CSc1nc2cc3c(cc2c(=O)n1CCCN(CC)CC)OCO3,i
O=C(Cc1ccc([N+](=O)[O-])cc1)Nc1ccc2c(c1)OCO2,i
CCN1CCCC1CNC(=O)Cn1nc(C)n2c(cc3cc(C)ccc32)c1=O (stereo unspecified),i
O=S1(=O)CCN2N=C(C3CC3)SC2=N1,i
O=C(c1cc2c(=O)n3ccccc3nc2s1)N1CCN(c2cccc(Cl)c2)CC1,i

(listing goes on)
smiles,CHT allo act
O=c1c2c([nH]c3ccc(Br)cc13)CCCC2,i
COCCN(C(=O)CSCC(=O)Nc1cccc(C)c1)c1c(N)n(Cc2ccccc2)c(=O)[nH]c1=O,i
COc1ccc(/C=N/NC(=O)CNC(=O)c2ccc(S(=O)(=O)N3CCOCC3)cc2)cc1OC,i
COc1ccc(C(=O)C2CCCN(Cc3cn(C)nc3-c3ccccc3)C2)cc1F (stereo unspecified),i
CCCc1cc(=O)[nH]c(SCc2nc3ccc([N+](=O)[O-])cc3[nH]2)n1,i
O=C(CSCC(=O)Nc1cccc([N+](=O)[O-])c1)Nc1ccccc1,i
COc1ccc(-n2nc(C(=O)NCC(=O)N3CCN(c4ccccc4F)CC3)c3ccccc3c2=O)cc1OC,i
CC1CCCCN1S(=O)(=O)c1ccc2c(c1)oc(=O)n2CC(=O)O (stereo unspecified),i
c1ccc(C(c2nnnn2C2CCCC2)N2CCN(c3nc4ccccc4s3)CC2)cc1 (stereo unspecified),i
CCOc1cccc(C(=O)Nc2cccc(-c3nc4ncccc4o3)c2C)c1,i
Cc1ccc(OCCn2cc(C(=O)O)c3ccccc32)cc1,i
CCCn1c(N)c(C(=O)CSc2nc(C)nc3sc(C)c(C)c23)c(=O)[nH]c1=O,i
Cc1cccc(NC(=O)c2cc(NC(=O)C3CCCCC3C(=O)O)ccc2N2CCCCC2)c1 (stereo unspecified),i
CC(=O)c1c(C)[nH]c(C(=O)NC2=NCCS2)c1C,i

This is a subset; most or all hits stand in other tables.
